HNF4A DNA FP: change in binding of human HNF4 alpha to DNA. P41235. HNF4a-FITC DNA binding, fluorescence polarization, 1 h. activity change, % at 10 µM. actives 0.3% (n = 360,000). AID 1224865; in the data active = activity change above about 30%, passing the limit was not always enough;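 note: controls were the assay level and a saturating level of protein; the project sought stronger binding though the title names inhibitors; some compounds called inactive have numbers as strong as hits; positive values seem to mean higher polarization but the record does not say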
Target sequence (P41235 whole entry, looked up): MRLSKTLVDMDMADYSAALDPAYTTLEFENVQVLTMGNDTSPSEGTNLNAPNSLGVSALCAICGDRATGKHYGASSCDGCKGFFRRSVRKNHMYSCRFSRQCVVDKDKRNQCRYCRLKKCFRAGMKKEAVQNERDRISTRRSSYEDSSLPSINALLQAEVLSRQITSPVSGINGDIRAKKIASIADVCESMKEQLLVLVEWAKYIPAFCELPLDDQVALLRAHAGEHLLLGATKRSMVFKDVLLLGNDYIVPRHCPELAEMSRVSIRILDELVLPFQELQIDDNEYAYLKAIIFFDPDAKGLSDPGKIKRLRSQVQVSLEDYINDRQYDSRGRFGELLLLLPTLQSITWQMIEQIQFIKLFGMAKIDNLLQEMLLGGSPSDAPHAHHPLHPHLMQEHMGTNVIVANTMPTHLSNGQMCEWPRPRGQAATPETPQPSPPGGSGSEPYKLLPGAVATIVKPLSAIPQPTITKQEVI
Vif A3G: HIV-1 Vif–A3G interaction blockers – biochemical, TR-FRET, GST-Vif 1-94, biotin-A3G peptide, dose response retest, primary screen (AID 1117319); actives 0.57% (n = 260,000); inhibition, %; hits with a dose series show IC50 in µM; TR-FRET GST-Vif / biotin-A3G peptide binding; higher % means a stronger effect; test concentration not given here; strong numbers were not always called active;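 active = above the screen mean plus three standard deviations and confirmed in dose response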;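 note: Vif residues 1-94 fused to GST binding biotinylated APOBEC3G peptide 110-148; 0% = full assay without inhibitor and 100% = GST in place of GST-Vif; retest series ran down from 100 µM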
Starred values were filed as active, the others as inactive. The list is partial, so the mix of outcomes need not match the whole.

HNF4A DNA FP | Vif A3G | smiles
-0.1 | -2.3% | O=C(NC1CCCCC1)c1cccc(NC(=O)c2ccccc2Cl)c1
6.2 | -2.7% | CC(=O)N(C)C[C@@H]1Oc2ncc(Br)cc2C(=O)N([C@H](C)CO)C[C@@H]1C
-0.5 | 3.5% | CN(CC(=O)Nc1ccc(Cl)c(C(F)(F)F)c1)S(=O)(=O)c1cnc[nH]1
1.8 | -0.1% | CSc1ncnc2c1ncn2CCCNCc1cccc2ccccc12
0.8 | 4.9% | O=C(O)C(=Cc1ccc([N+](=O)[O-])cc1)c1cccc(Cl)c1
2.5 | 4.0% | Cc1ccc(S(=O)(=O)N2C[C@H]3[C@H]4C(=O)N(c5ccccc5)C(=O)[C@H]4C[C@H](OC(=O)NCc4ccccc4)[C@@]3(O)C2)cc1
-1.3 | -3.5% | O[C@H]1C[C@H](c2ccc(Cl)cc2)N(Cc2cccs2)C[C@@H]1n1cc(C2CC2)nn1
2.6 | 1.3% | COc1ccccc1CN(C)C[C@@H]1OCc2cnnn2CCCC(=O)N([C@H](C)CO)C[C@H]1C
-5.2 | 1.4% | COc1ccc(CCN2CC(C(=O)OCC(=O)c3c(N)n(CC(C)C)c(=O)n(C)c3=O)CC2=O)cc1OC (stereo not given)
-1.6 | -5.7% | COc1ccc(N2CCN(C(=O)COC(=O)c3nc(Cl)ccc3Cl)CC2)cc1
0.3 | -9.9% | O=C(C1CCCCC1)N1C[C@@H](O)[C@H](n2cc(C3CC3)nn2)C[C@@H]1c1ccccc1
8.7 | -3.2% | O=C(CN1CCN(C(=O)CNC(=O)c2ccc(-c3ccccc3)cc2)CC1)Nc1ccccc1Cl

HNF4A DNA FP | Vif A3G | smiles
-0.3 | 9.3% | CCN(CC)C(=O)C1=C(C)N(Cc2ccc(F)cc2)C(=O)C(CC(=O)NCc2ccco2)C1 (stereo not given)
-1.3 | -2.1% | O=C1OC(COCC#Cc2ccccc2)CN1c1ccccc1 (stereo not given)
0.5 | 1.4% | COc1ccc(NC(=O)CCNC(=O)N2CC(=O)Nc3ccccc32)cc1
9.8 | -7.5% | CSc1nc2nc(Cl)c(Cl)nc2[nH]1
2.5 | -0.2% | O=c1[nH]cc(CCCc2ccccc2)c(=O)[nH]1
0.1 | -1.6% | Cc1cc(C(F)(F)F)nc(NNc2nc(C)cc(C(F)(F)F)n2)n1
4.5 | 7.3% | CSc1ncccc1C(=O)OCC(=O)c1ccc(Cl)s1
2.6 | 1.6% | O=C(CCN1CCCO1)N1CCCC(Nc2cccc(F)c2)C1 (stereo not given)
2.0 | 3.7% | CCOC(=O)C1CCN(C(=O)CCn2c(=O)oc3ccccc32)CC1
-1.5 | -1.3% | Cc1ccc(N2CCC3CC2c2cc(-c4ccc(C(F)(F)F)cc4)ccc23)cc1 (stereo not given)
3.6 | 0.4% | Cc1ccc(S(=O)(=O)N2C[C@H]3n4c(=O)ccc(=O)n4C[C@H](OC(=O)Nc4c(C)noc4C)[C@@]3(O)C2)cc1
-2.8 | -0.8% | Cc1cccc(-n2cnc3cc(C(=O)NCC4CCCO4)ccc32)c1 (stereo not given)

HNF4A DNA FP | Vif A3G | smiles
4.2 | 0.0% | COc1ccc(CN(CCCn2cnc3c(OC)ncnc32)CCCn2cnc3c(OC)ncnc32)cc1
0.1 | -0.5% | CCCCCCN1C[C@@H](O)[C@H](n2cc(-c3ccc(F)cc3)nn2)C[C@@H]1c1ccc(OC)cc1
0.9 | -2.3% | C#CCN(C[C@@H]1[C@@H](OC(=O)Nc2c(C)noc2C)[C@@H](OC(=O)Nc2c(C)noc2C)Cn2c(=O)n(CCCCCC)c(=O)n21)S(=O)(=O)c1ccc(C)cc1
2.8 | -7.3% | COc1ccc([C@H]2N[C@]3(CCCN(Cc4ccc(Br)cc4)C3=O)[C@H]3C(=O)N(C)C(=O)[C@@H]23)cc1
-2.7 | -6.2% | COc1cccc(COC(=O)C(Cc2ccccc2)NC(=O)c2ccco2)c1 (stereo not given)
1.3 | 0.6% | Cc1cccc(NC(=O)c2nc[nH]c2C(=O)N[C@@H](C)CO)c1
4.3 | 4.3% | O=C(CN1CCN(C(=O)CCC(=O)N2CCC(c3ccccc3)=N2)CC1)Nc1cccc(F)c1
1.6 | 5.3% | COC(=O)C[C@H]1C[C@H]2c3cc(NC(=O)NC4CCCC4)ccc3O[C@H]2[C@@H](CO)O1
1.6 | 2.1% | COc1ccccc1-c1n[nH]nc1C1=CC(=O)C[C@H](c2ccc(F)cc2)C1
1.4 | 0.1% | Cn1c(=O)c2c(ncn2CC(=O)OCC(=O)c2ccc(OC(F)F)cc2OC(F)F)n(C)c1=O
-1.3 | -7.1% | COc1ccc([C@H]2N[C@]3(CCCN(Cc4ccc(C)cc4)C3=O)[C@H]3C(=O)N(C)C(=O)[C@@H]23)cc1
-1.0 | -1.1% | CCc1ccccc1NC(=O)CN1CCN(C(=O)c2cc(C3CC3)nn2-c2ccccc2)CC1

HNF4A DNA FP | Vif A3G | smiles
-0.5 | 4.4% | CC(C)CN(C(=O)CSc1nc2ccccc2[nH]1)c1c(N)n(Cc2ccccc2)c(=O)[nH]c1=O
-6.0 | -6.3% | Cc1cccc(-c2ocnc2C(=O)Nc2ncc(C)s2)c1
0.7 | 0.6% | O=C(CCN1CCN(c2ccccc2)CC1)NNC(=O)c1ccccc1
-1.5 | 2.9% | C[C@H]1CN([C@@H](C)CO)C(=O)c2cc(Br)cnc2O[C@@H]1CN(C)S(=O)(=O)c1ccccc1
1.1 | 0.3% | CN(C1CCCCC1)S(=O)(=O)c1ccc(SCC(N)=O)nc1
-1.7 | 4.8% | O=C(NCc1ccccc1)C1CNCC(C(=O)NCc2ccccc2)C1 (stereo not given)
-1.3 | 1.1% | COc1ccc(N2C[C@H](C)[C@@H](CC(=O)Nc3ccc(Br)cc3)C2=O)cc1
1.5 | 3.8% | O=C(Nc1ccccc1)C1=C(Nc2ccccc2)CSC1
0.7 | -4.8% | C[C@@H]1CN([C@@H](C)CO)C(=O)c2cc(NC(=O)c3ccccc3)ccc2O[C@@H](C)CCCCO[C@@H]1CN(C)Cc1ccc(C(F)(F)F)cc1
-8.5 | 2.9% | COc1cccc(NC(=O)N(C)C[C@@H]2Oc3ncc(Br)cc3C(=O)N([C@@H](C)CO)C[C@H]2C)c1
-0.1 | -2.6% | CCCCCCCCC(=O)N1C(C)CCC1C (stereo not given)
-4.4 | 4.7% | CC(=O)NC(CCc1ccc(Cl)c(Cl)c1)c1cccc(O)c(=O)c1 (stereo not given)

Three compounds already listed, sorted by heavy-atom count, smallest number first:
HNF4A DNA FP | Vif A3G | smiles
-0.5 | 3.5% | CN(CC(=O)Nc1ccc(Cl)c(C(F)(F)F)c1)S(=O)(=O)c1cnc[nH]1
-0.5 | 4.4% | CC(C)CN(C(=O)CSc1nc2ccccc2[nH]1)c1c(N)n(Cc2ccccc2)c(=O)[nH]c1=O
-5.2 | 1.4% | COc1ccc(CCN2CC(C(=O)OCC(=O)c3c(N)n(CC(C)C)c(=O)n(C)c3=O)CC2=O)cc1OC (stereo not given)

(list continues)
HNF4A DNA FP | Vif A3G | smiles
1.9 | 1.8% | CC(C)(C)C(=O)OCc1ccc(C2=CC(=O)CC(C)(C)C2=O)cc1
-0.2 | -5.4% | Cc1cc(C(=O)CN2C(=O)NC(C)(c3ccc(F)c(F)c3)C2=O)c(C)n1C1CC1 (stereo not given)
1.7 | 1.0% | CC(=O)N(CCc1ccccc1)c1ccc2c(c1)C1CC2CCN1C(=O)OCc1ccccc1 (stereo not given)
-0.8 | 7.8% | Cc1ccc(S(=O)(=O)N(C)C[C@H]2OCc3cn(nn3)CCCC(=O)N([C@@H](C)CO)C[C@@H]2C)cc1
3.4 | 1.8% | COc1ccccc1N1CCN(C(=O)c2ccc3noc(-c4ccccc4)c3c2)CC1
6.9 | -1.4% | CCOC(=O)NC(=S)Nc1cccc(C)n1
2.8 | -1.1% | COc1cc(CCC(=O)Nc2cc(S(=O)(=O)N3CCOCC3)ccc2OC(C)C)cc(OC)c1OC
2.8 | 1.1% | Nc1ccn(CCCNC2CCN(Cc3ccccc3)CC2)c(=O)n1
0.4 | 0.1% | COc1ccc([C@H]2CN(CCc3ccccc3)C(=O)[C@@H]2CC(=O)Nc2ccccc2)cc1
0.3 | -3.1% | COCCn1c(C)cc(C(=O)CN2C(=O)C(=O)N(CCC3=CCCCC3)C2=O)c1C
-4.3 | 1.6% | CCc1ccc(N2CC(C(=O)Nc3ccccc3N3CCCC3)CC2=O)cc1 (stereo not given)
3.2 | -2.1% | CC(=O)N1C[C@H]2CON(C)[C@H]2C[C@H]1c1cccc(-c2cc(Cl)cc(Cl)c2)c1

Looked up above:
COc1cc(CCC(=O)Nc2cc(S(=O)(=O)N3CCOCC3)ccc2OC(C)C)cc(OC)c1OC – Vif A3G: -1.1%
Nc1ccn(CCCNC2CCN(Cc3ccccc3)CC2)c(=O)n1 – Vif A3G: 1.1%
O=C(CN1CCN(C(=O)CNC(=O)c2ccc(-c3ccccc3)cc2)CC1)Nc1ccccc1Cl – HNF4A DNA FP: 8.7

The results go on.
HNF4A DNA FP | Vif A3G | smiles
2.0 | 4.3% | O=C1NC(Cc2ccccc2)c2nc3cc(Cl)ccc3c(=O)n2-c2ncccc21 (stereo not given)
3.1 | 6.8% | O=C(O)c1cnc2ccc(Cl)cc2n1
4.9 | 1.3% | COc1cccc(CN(C)C(=O)C2CCCN(C(=O)c3ccc(Cl)cc3)C2)c1 (stereo not given)
3.0 | 1.3% | C[C@H](CO)N1C[C@H](C)[C@@H](CN(C)S(=O)(=O)c2ccc(F)cc2)OCc2cn(nn2)CCCC1=O
1.2 | -10.5% | Cc1cccc(NC(=O)CNC(=O)c2ccc(S(=O)(=O)NCc3ccco3)cc2)c1C
-1.4 | -5.8% | O=C(NCCN1CCOCC1)C(=O)NCC1OCCN1S(=O)(=O)c1ccc(Cl)cc1 (stereo not given)
0.7 | 4.7% | O=C(c1ccco1)N1CCN(C(=O)c2cnn(-c3ccc(F)cc3)c2-n2cccc2)CC1
-2.8 | 1.8% | C=CCN(c1ccc(F)cc1)S(=O)(=O)c1cc(C(=O)NC2CC2)ccc1Cl
2.9 | 7.3% | CNC(=O)C1(c2ccccc2)CCCCC1
3.5 | 3.7% | CC1=C(C(=O)N2CCOCC2)CC(CC(=O)NC2CCCCC2)C(=O)N1CCCN1CCCC1=O (stereo not given)
6.9 | 2.9% | CCOC(=O)C1CCC(C(=O)OCC)N1c1ccc(C=O)cc1 (stereo not given)
-0.2 | 4.5% | C[C@H]1CN(C2CCCCC2)C(=O)[C@@H]1CC(=O)Nc1ccccc1

HNF4A DNA FP | Vif A3G | smiles
-4.8 | -7.8% | C[C@@H]1CN([C@@H](C)CO)C(=O)CCCn2nncc2CO[C@@H]1CN(C)C(=O)Nc1ccccc1
3.8 | -8.1% | Cc1nnc(SC(C)C(=O)c2c[nH]c3ccccc23)n1C1CC1 (stereo not given)
1.7 | -1.4% | COC(=O)C(CSCc1ccccc1)NC(=O)CCNC(=O)OCc1ccccc1 (stereo not given)
0.6 | 0.9% | CCN(CC)C(=O)C1=C(C)N(Cc2ccc(C(C)(C)C)cc2)C(=O)C(CC(=O)NCCCN(C)C)C1 (stereo not given)
-4.5 | -2.2% | CCN(CC)C(=O)C1=C(C)N(CCCN2CCCC2=O)C(=O)C(CC(=O)NC2CCCC2)C1 (stereo not given)
-9.1 | 5.3% | Cc1cccc(C(=Cc2ccc([N+](=O)[O-])cc2)C(=O)O)c1
-1.8 | 5.2% | Cc1ccc(S(=O)(=O)NN=C2CCc3ccccc32)cc1
-0.4 | -3.6% | COc1ccc(S(=O)(=O)N(C)C)cc1NC(=O)c1ccc(OCC2CCCO2)cc1 (stereo not given)
1.2 | -9.3% | O=C(C1CCCCC1)N1C[C@H](O)[C@@H](n2cc(-c3ccc(F)cc3)nn2)C[C@@H]1c1ccccc1
0.2 | -6.1% | C[C@@H]1CN([C@H](C)CO)C(=O)CCCn2cc(nn2)CO[C@H]1CN(C)C(=O)Nc1ccc2c(c1)OCO2
2.8 | 9.7% | C[C@H](CO)N1C[C@H](C)[C@@H](CN(C)Cc2ccccc2)OCCCC[C@H](C)Oc2ccc(N(C)C)cc2C1=O
-4.7 | -4.2% | C[C@H](CO)N1C[C@H](C)[C@H](CN(C)C(=O)Nc2ccccc2)OCc2cnnn2CCCC1=O

HNF4A DNA FP | Vif A3G | smiles
-0.7 | -2.3% | CC(Oc1ccccc1)C(=O)N1CCN(S(=O)(=O)c2ccc(OC(F)(F)F)cc2)CC1 (stereo not given)
2.3 | 0.9% | COc1ccc(CNC(=O)C[C@@H]2C[C@H]3c4cc(NC(=O)C5CCC5)ccc4O[C@H]3[C@@H](CO)O2)cc1
0.4 | -2.3% | COc1ccc(NC(=O)c2ccc(S(=O)(=O)N(C)c3ccccc3)cc2)cc1S(=O)(=O)N1CCOCC1
1.3 | 1.8% | CSCCC(C)N1CCC(Oc2ccc(C(=O)NCc3ccccn3)cc2)CC1 (stereo not given)
1.3 | 8.0% | COc1ccc(C(C)=O)c(OCC(=O)NCCC2=CCCCC2)c1
0.6 | -9.6% | O=C(CCn1c(=S)[nH]c2cc3c(cc2c1=O)OCO3)NCCc1ccccc1Cl
-4.5 | -4.2% | OCCNc1ncnc2c1nnn2Cc1ccccc1Cl
-0.4 | -4.0% | C[C@H](CO)N1C[C@H](C)[C@@H](CN(C)Cc2ccccc2C(=O)O)OCc2cnnn2CCCC1=O
-2.5 | -4.9% | O=C(OCc1cn([C@@H]2CN(C(=O)C3CCCCC3)[C@@H](c3ccc(Cl)cc3)C[C@H]2O)nn1)c1ccccc1
1.6 | 1.7% | O=S(=O)(c1ccc(NC(=S)N2CCCCC2CO)cc1)N1CCOCC1 (stereo not given)
-1.2 | -13.2% | C[C@@H]1CN([C@H](C)CO)S(=O)(=O)c2ccc(C3=CCCCC3)cc2O[C@H]1CN(C)C(=O)Cc1cccnc1
7.2 | 1.9% | CCCOc1ccc(C2C(C(=O)c3ccco3)=C(O)C(=O)N2CCCn2ccnc2)cc1OC (stereo not given)

Bioassay records: PubChem, several laboratories
